Mtb growth: Mycobacterium tuberculosis H37Rv growth inhibition, cell based, confirmatory dose response (AID 1949). most inactive calls were filed without a number and no value below 0 was filed. one-dose inhibition, % at 10 µg/mL; IC50 in µg/mL for titrated hits. 100,000 tested, 1.6% active;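 active = confirmed in a dose series; inconclusive = about 50% or more but not retested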;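 note: bacteria grown 7 days with compound before Alamar blue readout; 0% = untreated bacteria and 100% = reference antibiotic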
* = called active by the depositor; i = inactive; ? = inconclusive. An excerpt. The share of hits here may be higher or lower than overall.

SMILES	Mtb growth
CCOC(=O)c1c(-c2ccc(F)cc2)csc1NC(=O)CSc1n[nH]c(N)n1	2%
COc1ccc(NC(=O)CC2C(=O)N(c3ccc(F)cc3)C(=S)N2CCc2ccc(F)cc2)cc1 (stereo not drawn)	i
O=C(CN1C(=O)c2ccccc2C1=O)Nc1ccc(F)cc1	i
Cc1ccc(S(=O)(=O)N(CC(=O)N2CCOCC2)c2cccc(C)c2C)cc1	i
CC1=C(C(=O)Nc2ccccc2Cl)C(c2ccc(C)cc2)NC(=O)N1 (stereo not drawn)	i
c1ccc(OCCN2CCN(C(c3ccccc3)c3ccccc3)CC2)cc1	?
CC1CCN(c2ccccc2NC(=S)NC(=O)c2cccs2)CC1	i
CC(C)(C)C(=O)Nc1ccc2oc(-c3cccnc3)nc2c1	i
CCNS(=O)(=O)c1ccc(OC)c(C)c1	1%
CCOC(=O)c1c(NC(=O)c2cccnc2)sc(C(N)=O)c1C	i
CS(=O)(=O)c1nc(-c2ccc(F)cc2)cc(C(F)(F)F)n1	18%
Nc1nc(N)nc(-c2ccc(Cl)cc2)n1	i
CC(C)Oc1ccc(-c2cc(C(F)(F)F)n3ncc(C#N)c3n2)cc1	i
COc1ccc(CNC(=O)c2cccc(C)c2[N+](=O)[O-])cc1	5%
Cc1ccc(N2CC(C(=O)NCc3ccco3)CC2=O)cc1Cl (stereo not drawn)	2%
Fc1ccccc1CNc1ccc(N2CCOCC2)cc1	2%
Cc1ccc(Cl)cc1NC(=O)CSc1nnc(-c2ccncc2)n1CC(C)C	1%
Cc1ccc(NC(=O)CCCN2C(=O)c3ccccc3C2=O)cc1Cl	i
Cc1cccc(NC(=S)Nc2ccc(Cl)cc2Cl)c1C	i
CC(NCCC(Cc1ccccc1)c1ccco1)c1ccccc1 (stereo not drawn)	5%
CN1CCN(c2ccc(NC(=O)c3cccc(Br)c3)cc2)CC1	i
O=C(CN1C(=O)C(=O)c2ccccc21)OCc1cccc(Br)c1	i
C=CCOc1cccc(C2C(C(=O)c3cc4ccccc4o3)=C(O)C(=O)N2CCCN(C)C)c1 (stereo not drawn)	i
CCCc1cc2c(cc1NC(=O)c1cc(F)c(F)cc1Cl)OCO2	36%
N#Cc1ccc(-c2ccc(OC(=O)c3cc4ccccc4oc3=O)cc2)cc1	48%
SMILES	Mtb growth
O=S(=O)(Oc1ccc(Cl)cc1)c1ccc(I)cc1	6%
Cc1ccc(S(=O)(=O)N(C)CC(=O)Nc2ccccc2Br)cc1	3%
CCCOc1ccc(-c2c(=O)n(OCc3ccccc3Br)c3ccccc3[n+]2[O-])cc1	1%
O=C(c1ccc(COc2ccccc2Br)o1)N1CCCCCC1	3%
Fc1cccc(Cl)c1COc1ccc(C(=S)N2CCCCC2)cc1	i
COc1ccc(C(=O)Nc2ccc(OC(C)=O)cc2)cc1Cl	i
C=CCn1c(SCC(=O)Nc2ccc(Br)cc2)nc2sc3c(c2c1=O)CCC3	5%
C=CCn1c(SCC(=O)Nc2nccs2)nnc1-c1cc(Br)ccc1O	i
O=S(=O)(c1ccc(F)cc1)N1CCN(c2ncnc3scc(-c4ccccc4)c23)CC1	i
COc1ccc(-c2cc(=O)oc3c(C)c(OC(C)=O)ccc23)cc1	i
CCc1ccc(C(=O)NC(CC(C)C)C(=O)Nc2ccc(NC(C)=O)cc2)cc1 (stereo not drawn)	i
O=C(CSc1nc(O)cc(=O)n1-c1ccccc1)Nc1ccccn1	i
CCOC(=O)c1ccc(Cn2c(-c3ccccc3)nnc2-c2ccccc2)o1	3%
CC(=O)c1ccc(NC(=O)c2cn(-c3ccccc3)nc2-c2ccncc2)cc1	i
COC(=O)c1c(NC(=O)c2cc(OC)c(OC)c(OC)c2)sc(C)c1-c1ccccc1	13%
CCOC(=O)c1ccc(NS(=O)(=O)c2ccc(OC)c(Cl)c2Cl)cc1	i
CC(C)CNC(=O)C1c2ccccc2Oc2ccccc21	i
COc1ccccc1-c1nn2c(Cn3nnc4ccccc43)nnc2s1	i
COc1ccc(C)cc1NC(=S)N1CC(C)OC(C)C1 (stereo not drawn)	i
N#CCCn1cc(CN(Cc2ccccc2)C(=O)c2ccccc2)c(-c2ccc(Br)cc2)n1	1%
COc1cc(C(=S)N2CCC(C)CC2)ccc1OCc1ccccc1	i
O=C(CCc1ccccc1)Nc1ccc(C(=O)NCc2ccccc2)cc1	i
O=C(OCC#CCOC(=O)c1ccccc1)c1ccccc1	i
COc1ccccc1C1(CC(=O)O)CCOC(C)(C)C1 (stereo not drawn)	i
Cc1ccc(OCC(=O)N2CCN(C3CCCCC3)CC2)cc1	i
SMILES	Mtb growth
COc1ccc(Br)cc1CN1CCN(C2CCCC(C)C2)CC1 (stereo not drawn)	i
COc1nc(C)ccc1-c1noc(-c2ccccc2F)n1	i
O=C(CN(c1ccc([N+](=O)[O-])cc1)S(=O)(=O)c1ccccc1)Nc1ccc(S(=O)(=O)N2CCCCC2)cc1	i
COc1cc(C)ccc1OCCn1c(-c2ccc(Br)cc2)nc2ccccc2c1=O	i
Cc1cc(C)n(S(=O)(=O)c2ccc(I)cc2)n1	5%
COC(=O)Cc1c(-c2ccccc2)c2cc(Cl)ccc2[nH]c1=O	1%
O=C1c2cc(Cl)c(Cl)cc2C(=O)N1c1cc(C(F)(F)F)ccc1Cl	i
COc1ccc2c(c1)c(=O)oc1c(C)c(OCC(=O)c3cccc([N+](=O)[O-])c3)ccc12	i
COc1ccc2c(c1)c(=O)oc1cc(OCc3c(F)cccc3F)ccc12	i
Cc1sc2ncnc(SCC(=O)C(C)(C)C)c2c1C	5%
CCC(=O)NC(=S)Nc1cc(C(=O)O)ccc1C	i
CC(Oc1ccccc1)C(=O)NC1CCCc2ccccc21 (stereo not drawn)	i
O=C(C1CCCO1)N1CCN(C(=S)Nc2ccc(Br)cc2Cl)CC1 (stereo not drawn)	i
O=C(O)C1CCCCC1C(=O)NCCC1=CCCCC1 (stereo not drawn)	i
CCN(CC)c1ccc(-n2nc3cc(C)c(NC(=S)NC(=O)c4ccco4)cc3n2)cc1	5%
Ic1ccc(CSc2ncn[nH]2)cc1	i
O=C(CN(Cc1ccccc1)S(=O)(=O)c1ccc(Br)cc1)N1CCCCCC1	i
COc1ccc(NC(=O)c2ccc(COCC(F)(F)C(F)F)cc2)cc1OC	i
CCS(=O)(=O)Nc1ccc(Cc2ccc(NS(=O)(=O)CC)cc2)cc1	5%
COCCNC(=O)c1cc(-c2ccc(OC)cc2)nc2ccccc12	i
O=C(c1ccc(Cl)cc1)N1CCCn2c1nc1ccccc12	i
O=C(CSCc1c(Cl)cccc1Cl)N1CCN(c2ccccc2)CC1	i
Cc1ccc(NC(=S)Nc2ccc(O)cc2)cc1	i
COc1cccc(NC(=O)COc2c(C)cc(C)cc2C)c1	i
CN1CCN(c2ccc(NC(=O)COc3ccccc3Cl)cc2)CC1	2%
SMILES	Mtb growth
Cc1ccc(S(=O)(=O)N2CCCC2C(=O)N2CCCCCC2)cc1 (stereo not drawn)	i
Cc1c(C(=O)Nc2ccc3c(c2)CCC3)oc2ccccc12	5%
Cc1c(NC(=O)COc2ccccc2Cl)cccc1[N+](=O)[O-]	i
CN(C)c1nc(SCC#N)nc(N2CCOCC2)n1	i
CC(C)NC(=O)C(=O)NC1CCCCCC1	i
CCOc1ccc(NC(=O)CSc2ncccn2)cc1	i
COC(=O)c1ccc(COC(=O)CNS(=O)(=O)c2cc(Cl)ccc2Cl)cc1	i
O=C(O)c1cccc(S(=O)(=O)NC2CCCCC2)c1	1%
Fc1ccccc1-c1n[nH]c(=S)n1-c1cccc(Cl)c1	i
COc1ccc(NC(=O)c2cnn3c(C(F)(F)F)cc(-c4ccc(OC)c(OC)c4)nc23)cc1OC	i
COc1cccc(C(=O)Nc2ccc(NC(=O)C3C4C=CC(C4)C3C(=O)O)cc2)c1 (stereo not drawn)	i
Cc1ccc(C)c(C(=O)CCC(=O)Nc2cccnc2)c1	i
COCc1nnc(NS(=O)(=O)Cc2ccccc2)s1	5%
Cc1cc(C(F)F)n2nc(C(=O)Nc3ccc(F)cc3F)nc2n1	i
Cc1ccc2c(c1)C(O)(CC(=O)c1ccc3c(c1)OCCO3)C(=O)N2 (stereo not drawn)	i
COc1cc(OC)c(C(=O)NC2CCCCCC2)cc1OC	i
O=C1c2oc3ccc(Br)cc3c(=O)c2C(c2ccc([N+](=O)[O-])cc2)N1Cc1ccccc1Cl (stereo not drawn)	i
COc1ccccc1OCc1ccc(C(=O)OCc2ccc([N+](=O)[O-])cc2)cc1	i
O=C(NC(=S)Nc1cccc(-c2ccc(CO)o2)c1)c1cc2ccccc2o1	i
Cc1ccccc1C(=O)NC(=S)Nc1ccc(S(=O)(=O)N2CCOCC2)cc1	3%
COC(=O)c1c(NC(=O)c2cccc(C)c2)sc(C)c1C	i
O=C(O)c1cc2c(ccc3ccccc32)oc1=O	i
COC(=O)C1=CN(Cc2ccc3c(c2)OCO3)C=C(C(=O)OC)C1c1cccc(O)c1	i
CCN(CC)CCC#CC1(O)c2ccccc2-c2ccccc21	i
Cc1cccc(NC(=O)CSc2nc3sc4c(c3c(=O)[nH]2)CCCC4)c1	i

Reformatted with each value named: 2 of the compounds above.
COCc1nnc(NS(=O)(=O)Cc2ccccc2)s1
  Mtb growth: 5%
Cc1cccc(NC(=O)CSc2nc3sc4c(c3c(=O)[nH]2)CCCC4)c1
  Mtb growth: i

The listing continues:
SMILES	Mtb growth
O=C(O)Cc1nn(Cc2ccccc2)c(=O)c2ccccc12	i
Cc1ccc(S(=O)(=O)N(CC(=O)NCc2ccco2)Cc2c(F)cccc2Cl)cc1	2%
CC(C(=O)NCc1cccnc1)c1ccc([N+](=O)[O-])cc1 (stereo not drawn)	i
COc1ccc(CN(C)CC23CC4CC(CC(C4)C2)C3)cc1	i
N#Cc1ccc(N2CCN(C(=O)c3ccc(F)cc3F)CC2)c(F)c1	1%
Cc1cc(OCc2n[nH]c(=S)n2C)ccc1Cl	i
COc1ccccc1OCC(=O)Nc1cc(Cl)ccc1O	1%
O=C(c1cnccn1)N1CCN(c2ccccc2F)CC1	i
COCCCNC(=O)c1c(NC(=O)c2ccccc2[N+](=O)[O-])sc2c1CCCC2	i
O=C(NCc1ccco1)c1ccc(SC2CCCCC2)c([N+](=O)[O-])c1	0%
COc1ccc(C(=O)NC(=S)Nc2ccccc2C(N)=O)cc1	i
COc1ccc(C2Nc3ccccc3NC3=C2C(=O)CC(C)(C)C3)cc1OCc1ccccc1 (stereo not drawn)	i
O=C(Nc1cccc2cccnc12)c1cccnc1	i
COc1cccc(CSc2nnc(-c3ccncc3)n2-c2ccc(C)cc2)c1	i
C=CCn1c(SCC(=O)c2cc(Cl)sc2Cl)nc2ccccc2c1=O	i
CC(c1ccccc1)n1cnc2ccccc21 (stereo not drawn)	i
CCC1CCC(NC(=O)C(=O)Nc2cccc(Cl)c2Cl)CC1 (stereo not drawn)	0%
CCOc1ccc2[nH]c3nc(=S)[nH]nc3c2c1	3%
C/C(=C\c1ccccc1)CN1CCC(C(=O)N2CCN(Cc3ccc4c(c3)OCO4)CC2)CC1	2%
C=CCn1c(Cc2c(C)[nH]c3ccccc23)n[nH]c1=S	i
CC(Oc1ccc(Cl)cc1Cl)C(=O)Nc1ccc(F)c(Cl)c1 (stereo not drawn)	44%
CC(C)Oc1cccc(C(=O)Nc2ccc(CN3CCOCC3)cc2)c1	i
COC(=O)C(O)(CC(=O)Nc1ccc(Cl)cc1F)C(F)(F)F (stereo not drawn)	i
Cc1ccc(OCCCN2CC(C)OC(C)C2)c(C(C)(C)C)c1 (stereo not drawn)	i
COc1ccccc1CNC(=O)c1ccc(N(Cc2ccc(Cl)cc2)S(C)(=O)=O)cc1	i

Fetched by compound from above:
SMILES	Mtb growth
O=C(Nc1cccc2cccnc12)c1cccnc1	i
CC(C)Oc1cccc(C(=O)Nc2ccc(CN3CCOCC3)cc2)c1	i
C=CCn1c(SCC(=O)c2cc(Cl)sc2Cl)nc2ccccc2c1=O	i

Back to the main list; the 7 compounds before the break are reprinted first.
SMILES	Mtb growth
C/C(=C\c1ccccc1)CN1CCC(C(=O)N2CCN(Cc3ccc4c(c3)OCO4)CC2)CC1	2%
C=CCn1c(Cc2c(C)[nH]c3ccccc23)n[nH]c1=S	i
CC(Oc1ccc(Cl)cc1Cl)C(=O)Nc1ccc(F)c(Cl)c1 (stereo not drawn)	44%
CC(C)Oc1cccc(C(=O)Nc2ccc(CN3CCOCC3)cc2)c1	i
COC(=O)C(O)(CC(=O)Nc1ccc(Cl)cc1F)C(F)(F)F (stereo not drawn)	i
Cc1ccc(OCCCN2CC(C)OC(C)C2)c(C(C)(C)C)c1 (stereo not drawn)	i
COc1ccccc1CNC(=O)c1ccc(N(Cc2ccc(Cl)cc2)S(C)(=O)=O)cc1	i
O=C(C1CCCN(Cc2cccc([N+](=O)[O-])c2)C1)N1CCCCCC1 (stereo not drawn)	7%
CC1CCN(c2ccccc2NC(=S)NC(=O)c2ccco2)CC1	2%
Cc1ccc(NC(=O)C23CCC(C)(C(=O)C2)C3(C)C)cc1 (stereo not drawn)	3%
O=C(NNC(=S)NCc1ccco1)c1ccccc1I	i
Cc1cc(N)n(-c2ccc(C)c(Cl)c2)n1	5%
COc1ccc(Cl)cc1N1C(=O)CC(N2CCN(C)CC2)C1=O (stereo not drawn)	i
O=C(c1ccc(O)cc1)N1N=C2CCCCC2C1(O)C(F)(F)F (stereo not drawn)	i
O=C(Nc1ccc(N2CCN(Cc3ccccc3Cl)CC2)cc1)c1ccccc1I	i
Cc1ccc(-n2nc(C)c(/C=C/c3onc(C)c3[N+](=O)[O-])c2C)c(C)c1	3%
CC1CCN(S(=O)(=O)c2ccc(-c3nc4ccccc4s3)cc2)CC1	i
CC(=O)Nc1c(OC(C)=O)c2ccccc2oc1=O	i
N#Cc1c(NC(=O)c2ccc(-c3ccc(Cl)c(Cl)c3)o2)sc2c1CCC2	i

A different layout for four compounds above.
CC1CCN(S(=O)(=O)c2ccc(-c3nc4ccccc4s3)cc2)CC1
  Mtb growth = i

O=C(c1ccc(O)cc1)N1N=C2CCCCC2C1(O)C(F)(F)F (stereo not drawn)
  Mtb growth = i

COc1ccc(Cl)cc1N1C(=O)CC(N2CCN(C)CC2)C1=O (stereo not drawn)
  Mtb growth = i

N#Cc1c(NC(=O)c2ccc(-c3ccc(Cl)c(Cl)c3)o2)sc2c1CCC2
  Mtb growth = i

Assay outcomes: PubChem BioAssay, Southern Research Institute
